RanGTP-Imp inh – inhibitors of RanGTP-importin-beta interaction, primary screen, biochemical, FRET, CFP-Ran, YFP-importin-beta, homogeneous; cell-free CFP-Ran/YFP-importin-beta FRET ratio; inhibition, % (test concentration not listed); 1.1% of 300,000 active; AID 2216;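 active means most replicates above 15%; inconclusive means exactly half above 15%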;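 further: 0% = DMSO wells and 100% = Ran loaded with GDP instead of GTP; wells of about 40 µL received 100 nL stock; the first replicate is given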
UCH37 inh – inhibitors of human deubiquitinating enzyme UCH37; Q9Y5K5; purified proteasome/UCH37, Ub-AMC cleavage fluorescence; inhibition, % (concentration not given with the values); 0.33% of 330,000 active;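 active means mean of two replicates above 20%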;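 further: 0% = compound-free wells with enzyme and 100% = wells lacking proteasome; stock transfer was 100 nL into about 20 µL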
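Material: human UCH37 enzyme supplied as purified proteasome complex / Amount: 0.15 nM proteasome as dispensed / Buffer or medium: pH 7.4 Tris-HCl (50 mM) with ovalbumin, ATP-MgCl2, DTT / Times: preincubation 30 min, reaction 25 min, room temperature / Technique: AMC fluorescence from Ub-AMC cleavage, excitation 355 nm, emission 460 nm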
Beta2AR agonist – agonists of human beta-2 adrenergic receptor inducing internalization | P07550 | Am2.2-beta2AR cells, FAP receptor internalization, flow cytometry; reference of the scale not given here | response, % (concentration not given with the values) | 0.43% of 340,000 active | AID 504454;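 active means response above a set limit, near 3 SD of response in nonfluorescent compounds, cut at about 42% in these data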;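 further: stock transfer was 100 nL into about 11 µL; a reference agonist was the positive control; negative values mostly stem from fluorescent compounds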
T cruzi inh – T. cruzi replication inhibition; T. cruzi beta-gal in NIH3T3, luminescence, 90 h; inhibition, % (test concentration not listed); 1.4% of 300,000 active; AID 1885;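 active means mean inhibition across valid replicates above about 55%, limit read from the data; inconclusive means mean below that limit but half or more replicates reach it; inactive means mean below it, under half of replicates reach it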;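 further: signal also drops with host cell toxicity which is not excluded here; 0% = plate median of DMSO wells and 100% = zero luminescence signal; higher percent means less beta-gal luminescence so fewer parasites; stock transfer was 50 nL into about 50 µL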
Calb FLC – C. albicans growth modulation with fluconazole; growth inhibition, % (concentration not given with the values); 0.57% of 300,000 active; C. albicans CaCi-2 (fluconazole-resistant clinical isolate) + fluconazole, Alamar Blue growth, 48 h;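 active means most replicates above 75%; inconclusive means exactly half above 75%; inactive means most below 75%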;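 further: all wells also contain fluconazole at 8 µg/ml as a sub-toxic cotreatment; 0% = median of DMSO wells and 100% = median of geldanamycin control wells; wells of about 8 µL received 7.5 nL stock; the first replicate is given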
LANA-H2A inh – blocks KSHV LANA binding to histone H2A/H2B. Q9QR71. cell-free LANA-H2A/H2B peptide, fluorescence polarization. inhibition, % (concentration not given with the values). 0.6% of 320,000 active. AID 2629; in the data active means inhibition mostly above about 10%, no sharp cut-off; inactive means mostly below about 6.7%;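 further: stock transfer was 7.5 nL into about 10 µL; 0% = median of vehicle wells and 100% = median of positive control wells; one replicate is shown; the record names a cut of 25% in any replicate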
Target sequence (Q9QR71 whole entry, looked up): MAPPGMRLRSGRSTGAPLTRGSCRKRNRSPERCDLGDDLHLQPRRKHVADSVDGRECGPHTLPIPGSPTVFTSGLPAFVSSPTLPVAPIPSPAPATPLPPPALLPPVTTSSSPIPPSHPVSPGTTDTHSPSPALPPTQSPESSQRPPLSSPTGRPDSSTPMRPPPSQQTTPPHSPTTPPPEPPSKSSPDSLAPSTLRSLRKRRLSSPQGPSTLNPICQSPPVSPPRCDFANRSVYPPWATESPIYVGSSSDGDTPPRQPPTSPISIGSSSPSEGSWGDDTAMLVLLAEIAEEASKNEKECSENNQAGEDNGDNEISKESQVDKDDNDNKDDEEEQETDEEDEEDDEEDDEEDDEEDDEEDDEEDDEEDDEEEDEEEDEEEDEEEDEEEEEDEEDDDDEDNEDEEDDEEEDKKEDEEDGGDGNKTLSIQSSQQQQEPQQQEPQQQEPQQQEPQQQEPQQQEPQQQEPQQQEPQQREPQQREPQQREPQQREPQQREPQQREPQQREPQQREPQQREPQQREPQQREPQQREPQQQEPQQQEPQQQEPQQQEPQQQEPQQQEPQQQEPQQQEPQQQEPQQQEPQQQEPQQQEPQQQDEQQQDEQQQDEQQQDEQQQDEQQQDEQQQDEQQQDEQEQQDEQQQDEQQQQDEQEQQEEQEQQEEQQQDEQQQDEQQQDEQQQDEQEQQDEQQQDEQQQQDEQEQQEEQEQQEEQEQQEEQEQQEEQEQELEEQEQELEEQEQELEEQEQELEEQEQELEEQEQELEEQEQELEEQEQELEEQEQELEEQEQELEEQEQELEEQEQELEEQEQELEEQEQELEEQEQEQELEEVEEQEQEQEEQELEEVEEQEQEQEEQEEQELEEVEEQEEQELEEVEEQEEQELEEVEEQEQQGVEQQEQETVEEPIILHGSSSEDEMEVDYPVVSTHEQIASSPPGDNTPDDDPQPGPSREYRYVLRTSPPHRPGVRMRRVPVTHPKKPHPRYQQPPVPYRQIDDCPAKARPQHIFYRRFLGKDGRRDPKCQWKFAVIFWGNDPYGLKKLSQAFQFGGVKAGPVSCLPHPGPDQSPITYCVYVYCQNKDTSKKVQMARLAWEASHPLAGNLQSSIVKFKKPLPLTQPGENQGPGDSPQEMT
Beta cell apopt – blocks beta cell apoptosis; INS-1E cytokine-induced death, ATP luminescence, 48 h; percent of positive-control rescue, neutral wells zero; protection from apoptosis, % (test concentration not listed); 0.8% of 300,000 active; AID 435005;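 active means all replicates at 75% or more, or half of them and the mean; inconclusive means half reach 75% but not the mean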;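 further: 0% = cytokine-treated negative control wells and 100% = positive control rescue; higher means more ATP so stronger rescue from cytokine killing; wells of about 40 µL received 100 nL stock; the first replicate is given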
A1 inh – inhibitors of the anti-apoptotic protein A1, read as caspase activation; caspase activation, % (test concentration not listed); AID 2462; 0.066% of 330,000 active; MEF A1-2A-BIM cells, Caspase-Glo 3/7 luminescence, 3 h; percent of clofoctol response, vehicle zero;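 active means over half of replicate activation scores above 10%, or exactly half above 10 with the replicate mean above 10; inconclusive means replicate mean below 10 yet half the replicates above 10; inactive means over half of replicates below 10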;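 further: wells of about 30 µL received 50 nL stock; many hits fall short of the cut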
* = called active by the depositor; u = inconclusive; x = no result given.

SMILES	RanGTP-Imp inh	UCH37 inh	Beta2AR agonist	T cruzi inh	Calb FLC	LANA-H2A inh	Beta cell apopt	A1 inh
CCC(=O)Nc1ccc(C(=O)OCC(=O)c2ccc(C)c([N+](=O)[O-])c2)cc1	5.5	-0.3	-7	9	u	4.5	0	0.9
O=C(O)c1cccc(N2CCCCS2(=O)=O)c1	-2.0	0.8	9	-2	5	1.8	-2	0.2
CN(C)c1ncc(CN2CCC(C(=O)Nc3ccc(-n4cccn4)cc3)CC2)s1	2.1	-2.6	-3	6	-1	3.4	4	0.0
O=S(=O)(c1cccc(Cl)c1)N1CCN(S(=O)(=O)c2ccc3c(c2)OCCO3)CC1	x	3.1	6	x	x	5.7	-2	0.8
O=C(O/N=C(/c1ccccc1)c1ccncc1)c1ccccc1[N+](=O)[O-]	-0.9	x	1	-7	-12	-1.2	-3	0.2
Cc1cc(C)nc(NN2C(=O)C=CC2=O)n1	7.0	0.4	-2	-3	1	-10	x	-1.2
CCOC(=O)c1sc(NC(=O)CSc2nc(C)cc(C)c2C#N)c(C#N)c1C	4.5	2.7	-4	47	-18	1.0	2	0.5
CCN(CC)S(=O)(=O)c1ccc(N2CCN(C)CC2)c(NC(=O)Nc2ccccc2F)c1	2.7	2.3	26	39	0	0.2	4	-0.7
CC(=O)Oc1ccc2c(=O)c(Oc3ccccc3)coc2c1OC(C)=O	-0.1	1.5	1	-18	-2	4.0	x	1.1
O=C(O)Cn1c(=O)c2cccn2c2ccccc21	-0.5	1.6	-3	-19	-12	1.4	-1	0.1
CCN1CCN(C(=O)c2cc3c(-c4ccc(Cl)cc4)nn(C)c3s2)CC1	-1.7	-19	-3	28	10	-0.8	x	0.0
CC1CC(=O)Nc2ccccc2N1S(=O)(=O)c1ccc(C#N)cc1 (configuration not stated)	2.3	1.3	-3	-2	8	1.9	2	0.3
CCN(CC)S(=O)(=O)c1ccc(NC(=O)C2CCCN(C(=O)c3ccc(Cl)cc3)C2)cc1 (configuration not stated)	-3.1	1.1	1	6	-2	-0.6	0	0.5
Cc1ccc(-c2cc(-c3ccc(F)cc3)n[nH]2)c(O)c1	0.0	1.8	-7	10	-2	-0.9	2	-1.2
COc1ccc(NC(=S)N(CCCN2CCN(C)CC2)Cc2cccs2)cc1	2.7	2.2	-6	3	4	-1.8	-10	-0.1
COc1cc(C(=O)N2CCC(n3cnc4cc(F)ccc43)CC2)cc(OC)c1OC	5.2	0.4	17	-2	-3	2.8	1	0.7
Cc1cccc(C(=O)N2CCCC(c3nc(-c4ccc(F)cc4)no3)C2)c1 (configuration not stated)	0.8	0.9	-8	-7	20	-0.6	-2	-0.1
CSCCC1NC2(C(=O)Nc3ccc(Cl)cc32)[C@@H]2C(=O)N(C3CCCC3)C(=O)[C@H]12 (some centres not stated)	-0.6	0.5	x	4	32	1.6	2	-1.4
O=C(c1ccc(CS(=O)c2cccc(Cl)c2)o1)N1CCOCC1 (configuration not stated)	-1.8	2.9	4	-10	-22	0.2	0	0.5
CC(C)(C)C(=O)OCc1nc(-c2ccc(F)cc2)cs1	2.2	4.0	10	-10	-24	1.0	-6	-3.1
O=c1c2[nH]c3ccc(Br)cc3c2ncn1CCCn1ccnc1	-0.8	3.2	-12	8	-7	3.4	0	-1.0
CCOc1ncccc1C(=O)Nc1ccc(Cl)cc1	-0.4	0.9	8	4	44	3.2	-1	0.7
O=C(O)CSCC(=O)N1CCN(c2cc(C(F)(F)F)nc3ccccc23)CC1	2.8	3.2	3	-3	-5	2.0	-2	-2.1
CCOc1ccccc1Nc1nnc(C)c(=O)[nH]1	0.9	1.7	9	-4	-4	-5.8	x	0.8
CCCc1ncc(CN2CCCCC2C(=O)Nc2ccc(Oc3ccccc3)nc2)cn1 (configuration not stated)	-1.4	1.4	-5	1	-21	-2.9	0	0.6
Carrying on.
SMILES	RanGTP-Imp inh	UCH37 inh	Beta2AR agonist	T cruzi inh	Calb FLC	LANA-H2A inh	Beta cell apopt	A1 inh
CN(C(=O)C1CCC(CNS(=O)(=O)c2cccc3cccnc23)CC1)C1CCCCC1 (configuration not stated)	-0.2	1.1	-11	2	-17	-5.7	-4	-0.5
CCCCCNc1nc(NCCCO)c(C#N)c2c1CN(C)CC2	146*	-28	-7	16	-7	0.3	-14	0.8
On1cnnc1-c1ccccc1	1.2	-0.5	-2	-10	-4	1.8	-2	-0.3
N#Cc1c(-c2ccccc2F)cc(C2CC2)nc1SCC(=O)c1cccs1	12	3.0	4	24	12	1.8	x	0.0
C/C(=N/NC(=O)c1ccco1)c1ccc(NC(=O)c2ccc(Br)o2)cc1	-2.6	x	8	1	-8	-0.7	7	-0.4
Cc1cc(F)ccc1NC(=O)CCc1ccc(S(=O)(=O)N2CCOCC2)cc1	x	1.1	-4	x	x	8.5	0	0.2
Cc1cccc(NC(=S)N2CCn3cccc3C2c2cccnc2)c1 (configuration not stated)	7.3	0.6	-9	12	6	-1.3	-5	0.6
Cc1nc(CC(=O)Nc2nccs2)cs1	-3.1	5.7	-9	1	6	2.0	-9	1.1
COc1ccc(CC(=O)OC(C)CN2CCCCC2)cc1 (configuration not stated)	1.7	4.5	9	-10	22	-4.4	-6	0.9
CC(NCc1ccccc1)c1ccccc1O (configuration not stated)	-0.8	0.9	-2	9	-16	-0.8	4	0.1
C=CCNc1nc(N)c(C(=C(C#N)C#N)c2ccc(Br)cc2)s1	9.9	-223	4	2	-5	0.7	16	-0.2
COc1cnc(-c2ccccc2)[nH]c1=O	0.3	0.8	2	0	11	1.7	-2	-1.4
CC(NC(=O)/C(C#N)=C/c1ccc(OCC(=O)O)cc1)c1ccccc1 (configuration not stated)	5.4	5.0	-2	-12	7	-4.8	3	-0.3
Cn1cc(C(=O)NS(=O)(=O)Nc2ccc(Br)cc2)c2ccccc21	-0.1	6.1	3	-6	-6	-1.1	-2	0.5
CCCn1c(N)c(C(=O)CSc2nc(C)cs2)c(=O)n(C)c1=O	2.4	-0.6	-13	-6	3	1.8	-3	-0.4
COc1ccc(NC(=O)Nc2nnc(-c3cccs3)s2)cc1	4.7	0.4	3	0	-5	0.0	2	-1.6
COc1ccccc1CNS(=O)(=O)c1cccs1	2.3	4.1	-4	-8	-20	-0.6	-7	1.0
CC(=O)OC1c2c(ccc3ccc(=O)oc23)OC(C)(C)C1OC(=O)CC(C)C (configuration not stated)	x	-15	-20	x	x	-10	7	0.2
CCOC(=O)CCCCCC(=O)Nc1ccc2c(c1)C(=O)N([C@H](C)CO)C[C@@H](C)[C@H](CN(C)Cc1ccc3c(c1)OCO3)O2	x	0.5	-2	x	x	1.3	-9	-0.1
COc1ccc(C2NC(=O)CS2)cc1 (configuration not stated)	x	4.2	5	x	9	1.9	2	0.0
O=C(NCc1ccccc1)C1CC(=O)N(c2ccc(OCC(=O)N3CCCC3)cc2)C1 (configuration not stated)	1.8	-2.1	-9	-5	22	2.3	-7	0.2
COc1ccc(NS(=O)(=O)c2cc(N=Nc3c(O)[nH]c(=O)[nH]c3=O)ccc2Cl)cc1	x	14	-1	x	x	2.0	1	-1.6
c1ccn2cc(C34CC5CC(CC(C5)C3)C4)nc2c1	2.4	-3.6	-9	3	-12	0.1	1	0.6
C[C@@H](NC(=O)c1cc2c([nH]c3ccccc32)c(-c2ccccc2)n1)C(=O)O	-2.1	-142	7	20	18	-1.9	0	1.1
COc1ccc(COc2cc(-c3cccc(OC)c3)nc3ccc(NC(=O)c4cccnc4)cc23)cc1	3.2	2.1	30	38	1	0.2	12	-0.3
Next compounds follow:
SMILES	RanGTP-Imp inh	UCH37 inh	Beta2AR agonist	T cruzi inh	Calb FLC	LANA-H2A inh	Beta cell apopt	A1 inh
CN(c1ccccc1)S(=O)(=O)c1cccc(NC(=O)Cc2c(F)cccc2Cl)c1	-2.9	2.7	16	27	1	1.2	x	0.7
CCOc1ccc2nc(NC(=O)c3ccc(S(=O)(=O)N4CCOCC4)cc3)sc2c1	-3.1	-48	4	-21	-2	-1.8	-1	0.1
Cc1ccc(C(=O)NCc2nnc(SCC(=O)Nc3ccccc3)n2C)cc1	-2.5	-0.4	1	-25	15	-3.4	-15	-0.2
Clc1ccc(-n2nnnc2SCc2cn3ccccc3n2)cc1	2.4	7.4	-5	-9	3	4.3	1	1.1
c1ccc(COc2ccc(Oc3nc(N4CCCCC4)nc(N4CCOCC4)n3)nn2)cc1	u	4.9	1	36	u	-0.3	4	-0.2
Cc1ccc2[nH]c(=O)c(CN(Cc3ccc4c(c3)OCO4)Cc3nnnn3Cc3ccco3)cc2c1	-0.3	0.8	9	49	2	9.6	3	0.2
c1coc(CNc2ncnc3ccccc23)c1	0.7	2.7	-3	-3	2	0.7	36	-0.5
CC(Sc1nnc(-c2ccco2)o1)C(=O)NCCC1=CCCCC1 (configuration not stated)	6.5	3.8	13	-10	-22	2.3	1	-0.9
O=C(NCCNC(=O)c1ccccc1F)c1ccco1	5.2	2.0	1	-7	-4	1.3	-4	0.9
CC(c1nccs1)N(C)c1nc2nonc2nc1NC1CC1 (configuration not stated)	5.7	9.7	11	-9	-2	-0.2	4	0.2
Cc1csc(C(=O)NN)c1N(C)C	0.0	2.0	9	6	-3	-1.5	9	0.9
CCOC(=O)C1(Cc2ccc(Cl)cc2)CCN(C(=O)CCc2cnccn2)CC1	-4.6	0.1	-4	5	1	0.8	-4	0.4
O=C(CCC(=O)c1ccc(F)cc1)Nc1cccnc1	-0.3	-0.6	0	-4	2	-3.1	-7	-0.6
CSc1nsc(NC(=O)Cc2ccccc2)n1	-5.1	1.5	17	2	-16	-4.3	3	-1.2
O=C(Nc1ccc(CN2CCS(=O)(=O)CC2)cc1)c1ccc(C(F)(F)F)cc1	1.4	6.2	1	-5	1	2.2	-5	-0.1
Cc1cc(C)n(CCC(=O)N2CCN(S(=O)(=O)c3ccc(C)c(C)c3)CC2)n1	-3.1	3.1	5	12	-3	-9.0	1	0.5

Single records, from the list above. Order of values: RanGTP-Imp inh	UCH37 inh	Beta2AR agonist	T cruzi inh	Calb FLC	LANA-H2A inh	Beta cell apopt	A1 inh
`CCN(CC)S(=O)(=O)c1ccc(N2CCN(C)CC2)c(NC(=O)Nc2ccccc2F)c1` as listed: 2.7	2.3	26	39	0	0.2	4	-0.7
`C[C@@H](NC(=O)c1cc2c([nH]c3ccccc32)c(-c2ccccc2)n1)C(=O)O` as listed: -2.1	-142	7	20	18	-1.9	0	1.1
`CC1CC(=O)Nc2ccccc2N1S(=O)(=O)c1ccc(C#N)cc1` (configuration not stated) as listed: 2.3	1.3	-3	-2	8	1.9	2	0.3
`COc1ccc(CC(=O)OC(C)CN2CCCCC2)cc1` (configuration not stated) as listed: 1.7	4.5	9	-10	22	-4.4	-6	0.9
`Cc1csc(C(=O)NN)c1N(C)C` as listed: 0.0	2.0	9	6	-3	-1.5	9	0.9

Compound activity deposited in PubChem BioAssay by several laboratories.
